miR-21 FLuc: miR-21 reporter, rising signal | HeLa miR-21 FLuc reporter, luciferase, 48 h | 340,000 tested, under 10 active | Potency, µM (series often up to 38.3 µM), for inactives: top-dose reporter change, positive = more light; active = well fitted rising curve with a large enough effect; inconclusive = small, poorly fitted or top-dose-only effect; inactive = no such curve, though single readings can be large or run the other way;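 note: % of control where 0% means no effect; miR-21 action dims this reporter so a rising signal means less miR-21 action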
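Using DMEM plus 10% FBS, HeLa miR-21-FLuc cells are incubated with test compounds (final up to about 40uM) for 48 hours; firefly luciferase signal is then imaged following reagent-mediated lysis.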
Rango-impB inh: inhibitors of Rango-importin beta complex formation; Q14974; Rango CFP/YFP FRET sensor + importin beta, 45 min; Potency, µM (series often up to 92.2 µM), for the others: at the highest dose inhibition of complex formation; actives 0.031% (n = 340,000); AID 540263; active = rising FRET ratio curve, often small or poorly fitted; inconclusive = mostly compound fluorescence or quenching in the first reads; inactive = flat curves in all reads;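 note: potency is the fitted concentration of half-maximal effect; 0% = DMSO wells and 100% = buffer wells lacking importin beta; nearly all actives have a fitted effect of over 15% in size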
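Inhibition scored from the CFP 486 nm/YFP 530 nm FRET ratio 45 min after adding 0.125 microM importin beta to 50 nM Rango biosensor preincubated 5 min with compound (room temperature, PBS with DTT, Tween-20, BSA). No-importin wells as positive control.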
GLA inh pH 4.5: alpha-galactosidase A (human) inhibition, pH 4.5 | P06280 | purified enzyme, 4-MU-alpha-Gal fluorescence, pH 4.5 | activity change, negative = inhibition, % at 105 µM | 230,000 tested, under 10 active | AID 1467; inconclusive = small, poorly fitted or top-dose-only inhibition, or a rising curve; inactive = flat fitted curve, though single readings scatter; no compound was filed as active;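 note: 0% = full activity with enzyme and -100% = basal without enzyme; dose as in the result columns while the protocol names 77 µM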
Target sequence (P06280 whole entry, looked up): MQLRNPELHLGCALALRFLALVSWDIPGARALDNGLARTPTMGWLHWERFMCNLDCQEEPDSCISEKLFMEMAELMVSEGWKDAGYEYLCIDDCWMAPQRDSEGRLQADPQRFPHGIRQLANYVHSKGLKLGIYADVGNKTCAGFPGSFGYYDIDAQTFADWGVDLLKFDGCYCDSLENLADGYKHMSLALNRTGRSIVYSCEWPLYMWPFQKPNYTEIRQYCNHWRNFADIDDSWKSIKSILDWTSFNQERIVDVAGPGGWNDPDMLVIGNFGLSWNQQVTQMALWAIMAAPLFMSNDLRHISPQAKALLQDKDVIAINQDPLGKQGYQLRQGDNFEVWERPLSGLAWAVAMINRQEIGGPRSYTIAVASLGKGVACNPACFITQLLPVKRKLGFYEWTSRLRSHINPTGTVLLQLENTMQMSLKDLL
Rango dissoc inh: inhibition of RanGTP-driven Rango-importin beta dissociation. O95149+P62826. actives 0.071% (n = 340,000). AID 540253. Potency, µM (top dose mostly 46.1 µM), for inactives: top-dose activity change, negative = inhibition. Biochemical FRET Rango-importin beta, RanGTP-induced dissociation; active means falling FRET ratio curve, often poorly fitted, with flat reads before Ran was added; inconclusive means other falling curves, or compound fluorescence or quenching; inactive means flat or rising ratio curve;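 note: potency is the fitted concentration of half-maximal effect; % of control where 0% means no effect; nearly all actives have a fitted effect of over 45% in size; -100% = wells without RanGTP and RCC1; the record marks most hits as doubtful in a second field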
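Rango (0.1 uM)–importin beta (0.25 uM) complex; RanGTP-RCC1 trigger; 45 min RT; CFP/YFP FRET read.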
The depositor's hits bear a star; ? = inconclusive; . = no result given; & = joins results of further samples. This is a subset, so the mix of outcomes need not match the whole.

compound	miR-21 FLuc	Rango-impB inh	Rango dissoc inh	GLA inh pH 4.5
Cc1ccc(/C=N/NC(=O)CNC(=O)COc2ccccc2)cc1	-1%	-3.3%	5%	0
Clc1cccc(C2=NOC(c3nnc(-c4ccccc4)o3)C2)c1 (centres undefined)	-10%	-1.2%	1%	-10
CCOC(=O)CSc1nc2cc(C(=O)OC)ccc2c(=O)n1CCN1CCOCC1	0%	5.3%	-8%	-20
CSc1nc2[nH]ncc2c(=O)[nH]1	-3%	4.2%	-13%	-18
CCCCNc1nc(Cl)nc(Nc2ccc(C)cc2)n1	.	0.0%	-8%	.
CC(Sc1nc(N)cc(=O)[nH]1)C(=O)Nc1sc2c(c1C#N)CCCC2 (centres undefined)	9%	0.9%	10%	4
Oc1cccc(/C=N/N=C/c2cccc(O)c2O)c1O	-39%	-0.1%	-13%	.
O=C(C1CCN(S(=O)(=O)c2cccc3nsnc23)CC1)N1CCn2c1nc1ccccc12	-2%	-3.4%	-8%	3
c1ccc(CNc2nc3ccccc3[nH]2)cc1	-31%	?	26%	4
Cc1cc(C)n(C(=O)c2ccc([N+](=O)[O-])cc2N)n1	2%	3.1%	2%	-1
CC(=O)N1CCc2cc(S(=O)(=O)CCC(=O)NCCc3ccccc3)ccc21	2%	5.4%	7%	.
CN1OC[C@@H]2CN(C(=O)C(C)(C)C)[C@H](c3cccc(-c4ccccc4)c3)C[C@@H]21	.	0.8%	0%	.
COc1ccccc1CN1C(=O)[C@@H]2Cc3c([nH]c4ccccc34)C(C)(C)N2C1=O	.	-2.9%	2%	.
CCC(C)(C)NC(=O)CN(C(=O)c1snc(C(N)=O)c1N)c1ccc2nc(C)sc2c1	-6%	-3.4%	14%	-2
O=C(NCCC1=CCCCC1)C(c1ccccc1)c1ccccc1	0%	4.3%	-11%	-2
COc1cc2[nH]c3c(c2cc1OC)CCN1CCCC[C@@H]31	.	?	?	.
O=C(Nc1ccccc1N1CCOCC1)c1ccc([N+](=O)[O-])o1	-8%	1.6%	10%	.
COc1ccc(N(CC(=O)NC2CC3CCC2C3)S(=O)(=O)c2ccccc2)cc1Cl (centres undefined)	-2%	-1.9%	-8%	.
CNC(=O)C12CC3CC(C1)CC(c1ccc(C)cc1)(C3)C2	-5%	5.1%	31%	.
CCNC(=S)N/N=C/c1sc(N2CCCCC2)nc1-c1cccs1	-25%	?	?	4
COc1ccccc1C1=NOC(COc2ccc3c(C)cc(=O)oc3c2)C1 (centres undefined)	26%	1.2%	5%	5
CCOC(=O)COc1ccc(S(=O)(=O)NCc2cccnc2)cc1	1%	-0.5%	-4%	2
O=C(CSc1nnc(C2COc3ccccc3O2)o1)N1CCCc2ccccc21 (centres undefined)	0%	-2.5%	-13%	-5
COc1ccc(Br)cc1/C=N/n1nnnc1N	-4%	2.7%	1%	.
O=C(O)Cn1c(=O)c2c3c(sc2n(Cc2ccccc2)c1=O)CCCC3	-3%	-2.5%	3%	.
CCOC(=O)c1c(NC(=O)/C=C/C(=O)O)sc(C)c1-c1ccc(Cl)cc1	12%	-0.4%	-10%	-2
Cc1ccccc1-c1nnc(SCC(=O)NC2CCS(=O)(=O)C2)n1C (centres undefined)	.	-2.1%	-17%	.
CC1CCN(c2ccc3nnc(CCC(=O)Nc4cccc(F)c4)n3n2)CC1	-10%	1.6%	-9%	.
O=S(=O)(c1ccc(F)cc1)N1CCN=C1SCc1cccc(F)c1	-11%	0.1%	-7%	.
CC(NC(=O)c1cc(-c2cccnc2)nc2ccc(Br)cc12)C1CCCO1 (centres undefined)	0%	-0.5%	13%	.
O=C(COC(=O)C1CCN(S(=O)(=O)c2cccs2)CC1)Nc1ccccc1Br	3%	2.1%	9%	-8
O=C(COc1ccccc1)N1CCN=C1c1ccccc1	-7%	-0.7%	21%	3
Nc1ccc(Nc2ccccc2)c(Cl)c1	-16%	0.9%	-16%	-3
CCOC(=O)N/N=C\C=C\c1ccc2c(c1)OCO2	-65%	-2.4%	4%	4
CCOC(=O)COc1ccccc1/C=C1\NC(=O)NC1=O	-2%	-2.4%	7%	2
Cc1ccc(C(=O)/C=C/NCc2ccc(F)cc2)cc1	-29%	?	-13%	-13
FC(F)(F)c1cc(C(F)(F)F)c2ccc(N3CCN(c4ccccc4)CC3)nc2n1	-2%	1.6%	-13%	2
Cn1c(=O)c2c(nc(SCCN3CCOCC3)n2Cc2cccc3ccccc23)n(C)c1=O	-18%	-7.5%	-4%	-4
O=c1cc(-c2cccc(Br)c2)oc2cccc(O)c12	-3%	-1.2%	1%	0
CC(C)(C)NC(=O)CSc1nnc(-c2ccncc2)o1	-3%	?	-30%	-1
CCCCOc1ccc(N(CC(=O)NC2CCCCC2)C(=O)c2snc(C(N)=O)c2N)cc1	0%	-0.8%	-6%	.
CC1CCN(C(=O)CCS(=O)(=O)c2cc3c(cc2Cl)NC(=O)CO3)CC1	-3%&-2%	2.1%	16%	.
CN(/N=C/c1cc(Cl)cc(Cl)c1O)c1c(Cl)cccc1[N+](=O)[O-]	-3%	-1.2%	2%	-7
COc1c(CC=C(C)C)c(O)cc2oc(=O)c3c4ccc(O)cc4oc3c12	.	?	?	.
NC(=O)CSc1nc2cc3c(cc2c(=O)n1CCCC(=O)NCc1ccc2c(c1)OCO2)OCO3	4%	-1.4%	-1%	-7
COc1ccc(NS(=O)(=O)c2cccc(C(=O)NNC(=O)c3cc(S(N)(=O)=O)ccc3OC)c2)cc1	.	0.6%	21%	.
Nc1c(C(=O)C2CC2)sc2nc(-c3cccs3)cc(C(F)(F)F)c12	-5%	?	?	7
Cc1cc2cc(CN(Cc3ccco3)S(=O)(=O)c3c(C)ccc4nsnc34)c(=O)[nH]c2cc1C	-1%	?	?	-6
COc1ccc(/C=C2\N=C(C)OC2=O)cc1OC	-2%	-3.3%	-11%	.
O=C(O)c1ccccc1C(=O)Nc1ccccc1NC(=O)c1ccccc1C(=O)O	.	2.8%	31%	.
COc1cccc2cc(C(=O)N3CCN(c4ccc(C)cc4C)CC3)c(=O)oc12	2%	0.0%	-7%	-8
O=C(COC(=O)c1ccc(N2CCOCC2)c([N+](=O)[O-])c1)Nc1ccc2c(c1)OCO2	-10%	?	34%	-10
Cc1cccc(S(=O)(=O)Nc2cc(Cl)ccc2N2CCOCC2)c1	.	-0.9%	-12%	.
CN(CC(=O)Nc1ccc(F)cc1)C(=O)C1CCN(S(=O)(=O)c2ccc3c(c2)OCCO3)CC1	.	-2.1%	2%	.
CCOc1ccc(N(CC(=O)NCc2ccccc2)S(=O)(=O)c2ccc(C)cc2)cc1	4%	0.9%	-1%	.
COc1ccc(OCCCC(=O)Nc2ccc3c(c2)OCO3)cc1	-6%	-0.2%	10%	9
Cc1cc(NC(=O)/C=C/c2cccc(F)c2)n(-c2nc3ccccc3[nH]2)n1	-20%	0.5%	9%	-4
Cc1cc(CNC(=O)C2CCC(=O)N(CCc3cccc(F)c3)C2)on1 (centres undefined)	-3%	-0.6%	-20%	.
CCn1nc(NC(=O)COC)c2cc3cccc(C)c3nc21	2%	?	?	.
COc1ccc(N2CCN(S(=O)(=O)c3ccc(Cl)s3)CC2)cc1	-1%	-1.6%	0%	2

Structures shown so far that contain bromine, in the order listed:
compound	miR-21 FLuc	Rango-impB inh	Rango dissoc inh	GLA inh pH 4.5
COc1ccc(Br)cc1/C=N/n1nnnc1N	-4%	2.7%	1%	.
CC(NC(=O)c1cc(-c2cccnc2)nc2ccc(Br)cc12)C1CCCO1 (centres undefined)	0%	-0.5%	13%	.
O=C(COC(=O)C1CCN(S(=O)(=O)c2cccs2)CC1)Nc1ccccc1Br	3%	2.1%	9%	-8
O=c1cc(-c2cccc(Br)c2)oc2cccc(O)c12	-3%	-1.2%	1%	0

(listing goes on)
compound	miR-21 FLuc	Rango-impB inh	Rango dissoc inh	GLA inh pH 4.5
CCn1c(SCC(=O)N2CCCCC2)nc2c1c(=O)n(C)c(=O)n2C	1%	-0.4%	-2%	.
CC(C)(C)c1ccc(-c2ccc3c(c2)S(=O)(=O)c2ccccc2C3=O)cc1	.	-0.3%	7%	.
COc1ccc(Cl)cc1NC(=O)Cn1c(=O)oc2ccccc21	0%	-2.4%	-6%	.
CN=c1scc(-c2cc(OC)ccc2OC)n1/N=C/c1c(C)[nH]c2ccccc12	-15%	-4.5%	-16%	-14
O=C(c1ccccc1)N1CCN(C2C3CC4CC(C3)CC2C4)CC1 (centres undefined)	-5%	2.0%	6%	4
Cc1cccc(N(C(=O)Nc2ccccc2)C2=NCC(C)S2)c1 (centres undefined)	-23%	-2.6%	0%	-4
N#Cc1ccc(N2C(=O)[C@@H]3C(C(=O)c4ccc5ccccc5n4)=NN[C@@H]3C2=O)cc1	-4%	?	-10%	-4
COc1ccccc1NC(=O)N1CCC(NC(=O)C(Cc2ccccc2F)NC(C)=O)CC1 (centres undefined)	0%	-0.3%	4%	.
CCN(CC)S(=O)(=O)c1cccc(-c2n[nH]c(=S)n2/N=C/c2ccc(C(=O)OC)cc2)c1	-4%	-3.6%	10%	-19
CCOC(=O)C1(P(=O)(c2ccccc2)c2ccccc2)CCC1	1%	0.6%	21%	6
COc1ccc2c(=O)c(Oc3ccc(C(=O)O)cc3)c(C(F)(F)F)oc2c1	1%	-0.5%	15%	4
O=C([C@@H]1CC=C[C@@H]2CCN(C3CCCCC3)C(=O)[C@@H]21)N1CCN(c2ccccc2)CC1	.	3.8%	10%	.
O=C(CCCN1C(=O)/C(=C/c2cccs2)SC1=S)Nc1ccccn1	1%	-0.3%	4%	-1
Cc1ccc(NC(=O)COC(=O)C2COc3ccccc3O2)cc1 (centres undefined)	.	5.1%	9%	.
O=C(Cn1nc(-c2ccccc2)c2ccccc2c1=O)Nc1cccc(O)c1	2%	-3.3%	5%	4
CC(C)(C)Nc1c2ccccc2nc2ccccc12	11%	?	?	.
CCC(C)[C@H](NC(=O)NC1CCN(Cc2ccccc2)CC1)C(=O)OC (some centres undefined)	-3%	0.7%	6%	0
COc1ccccc1-c1coc2c(CN3CCOCC3)c(O)ccc2c1=O	2%	-1.1%	?	.
O=C(c1cnn2c(C(F)F)cc(C3CC3)nc12)N1CCCC1	-1%	-1.9%	13%	-6
O=C(c1ccc(OC2CCN(CCc3ccccc3)CC2)cc1)N1CCCC(CCCO)C1 (centres undefined)	3%	1.9%	5%	.
COc1ccc(S(=O)(=O)N2CCCC(C(=O)NCc3ccc(F)cc3)C2)cc1 (centres undefined)	6%	-1.1%	-8%	.
O=C(COC(=O)C1CC(=O)N(c2nc(-c3ccccc3)cs2)C1)c1ccccc1 (centres undefined)	-12%	-0.6%	-11%	-1
CCN(C(=O)CSc1nc2cc(C(F)(F)F)ccc2n1Cc1ccccc1)C1CCS(=O)(=O)C1 (centres undefined)	-1%	-2.5%	11%	-10
Cc1ccnc(NC(=O)c2cc3cc(F)ccc3s2)c1	-47%	-2.8%	0%	.
O=C1C=C(NC2CCCC2)CC(c2ccccc2)C1 (centres undefined)	17%	3.2%	22%	6
CSc1nc2sc3c(c2c(=S)[nH]1)CC(C)(C)OC3	-2%	1.1%	2%	.
COc1ccc2c(C)c(C(=O)O)oc2c1	-4%	?	-20%	3
COc1cccc(Nc2ccc(N3CCCCC3)cc2)c1OC	.	14%	18%	.
